# Assay outcomes: PubChem BioAssay, National Center for Advancing Translational Sciences (NCATS)
# TRPML1 inh = blocks the human TRPML1 channel | TRPML1-inducible cells, Ca2+ dye fluorescence, FDSS; hits give low values; inhibition of EC80 agonist-evoked calcium signal | activity change, negative = inhibition, % (test concentration not listed) | AID 624415 | 390,000 tested, 0.02% active; in the data active means activity change below about -50%; inconclusive means about -30% to -50%; inactive means above about -30%;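 further: stimulus is agonist 54-4 at its EC80 concentration; on the % scale 0 is the no-effect control and ±100 the full control effect; compound concentration not given in the record; the text of the record puts the active cut at -80%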
# Target sequence (Q9GZU1 whole entry, looked up): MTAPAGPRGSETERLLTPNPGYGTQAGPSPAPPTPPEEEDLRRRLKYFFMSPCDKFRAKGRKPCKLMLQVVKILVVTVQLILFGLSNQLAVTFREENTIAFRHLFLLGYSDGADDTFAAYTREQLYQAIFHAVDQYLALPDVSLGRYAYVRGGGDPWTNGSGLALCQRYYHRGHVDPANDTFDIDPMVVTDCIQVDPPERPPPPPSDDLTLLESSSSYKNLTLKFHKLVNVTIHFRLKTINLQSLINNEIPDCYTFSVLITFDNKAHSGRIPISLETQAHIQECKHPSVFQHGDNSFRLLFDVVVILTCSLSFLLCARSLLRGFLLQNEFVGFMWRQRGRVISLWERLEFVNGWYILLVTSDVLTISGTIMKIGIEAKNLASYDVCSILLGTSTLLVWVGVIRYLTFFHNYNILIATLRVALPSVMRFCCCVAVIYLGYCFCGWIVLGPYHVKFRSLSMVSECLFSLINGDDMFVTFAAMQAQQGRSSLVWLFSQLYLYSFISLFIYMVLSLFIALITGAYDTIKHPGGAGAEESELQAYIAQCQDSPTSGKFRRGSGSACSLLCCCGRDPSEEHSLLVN
#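 TRPML1-DL cells, Tet-induced overnight (~16 h, 37 °C) at 1,500 cells/well, were loaded with Ca8 no-wash dye plus quencher for 45-90 min at room temperature. Compounds were pinned during FDSS kinetic reading; agonist 54-4 at EC80 (4 uM final) then added.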
# CtBP-E1A blk = blocks the CtBP interaction with E1A; AlphaScreen GST-E1A/His-CtBP binding, 1536-well; hits give low values; control for the full effect not named in the record; activity change, % (test concentration not listed); 340,000 tested, 0.49% active; AID 651724; in the data active means activity change below about -65%; inconclusive means about -30% to -65%; inactive means above about -30%; further: on the % scale 0 is the no-effect control and ±100 the full control effect; compound concentration not given in the record
#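 Steps: dispense buffer (Tris pH 8.0, NaCl 300 mM, TCEP 1 mM, BSA, Tween 20); add 5X protein mix (GST-E1A, His-CtBP, 125 nM each); pin 23 nL compound; 2 h at 37 °C, dark; add 5X beads (50 ug/mL); 1 h; read.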
# TRPML1 ag = human mucolipin-1 channel agonism | Q9GZU1 | AID 624414 | 410,000 tested, 0.12% active | activation, % (test concentration not listed) | TRPML1-expressing cells, Ca2+ dye fluorescence, FDSS; host cell line not named in the record; reference of the full effect not given here; in the data active = activation above about 50%; inconclusive = about 30% to 50%; inactive = below about 30%; further: 0% is about no effect; the text of the record puts the active cut at 80%
#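 Cells: TRPML1-DL, 1X Tet inducer, ~16 h at 37 degrees C/5% CO2. Dye: ABD Ca8 no-wash + quencher, 45-90 min RT. Read: 10 s baseline, compound add, 110 s agonist phase; 54-4 EC80 (4uM final), 110 s antagonist phase.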
# Six1-Eya2 blk = blocks human Six1 binding to Eya2. AlphaScreen GST-Six1/His-Eya2 binding, biochemical; hits give low values; control for the full effect not named in the record. Q15475+O00167. activity change, % (concentration not given with the values). AID 651725. 360,000 tested, 0.56% active; in the data active = activity change below about -65%; inconclusive = about -30% to -65%; inactive = above about -30%; further: on the % scale 0 is the no-effect control and ±100 the full control effect
#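 Six1/Eya2 binding was read as AlphaScreen signal after compounds were pinned into GST-Six1 plus His-tagged Eya2 (5X stock 250/500 nM) in pH 8.0 Tris/NaCl/TCEP buffer, beads added, then incubated 1 h, 37 C, dark.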
# D2 agonist = activates the human D2 dopamine receptor. P14416. DiscoveRx PathHunter D2 beta-arrestin, luminescence, 90 min; 100% = 57 uM dopamine signal. activation, % (no concentration beside the values). 360,000 tested, 0.084% active; in the data active = activation above about 40%; inconclusive = about 15% to 40%; inactive = below about 15%; further: compound concentration not given in the record; the text of the record calls up to 30% inactive
# Target sequence (P14416 whole entry, looked up): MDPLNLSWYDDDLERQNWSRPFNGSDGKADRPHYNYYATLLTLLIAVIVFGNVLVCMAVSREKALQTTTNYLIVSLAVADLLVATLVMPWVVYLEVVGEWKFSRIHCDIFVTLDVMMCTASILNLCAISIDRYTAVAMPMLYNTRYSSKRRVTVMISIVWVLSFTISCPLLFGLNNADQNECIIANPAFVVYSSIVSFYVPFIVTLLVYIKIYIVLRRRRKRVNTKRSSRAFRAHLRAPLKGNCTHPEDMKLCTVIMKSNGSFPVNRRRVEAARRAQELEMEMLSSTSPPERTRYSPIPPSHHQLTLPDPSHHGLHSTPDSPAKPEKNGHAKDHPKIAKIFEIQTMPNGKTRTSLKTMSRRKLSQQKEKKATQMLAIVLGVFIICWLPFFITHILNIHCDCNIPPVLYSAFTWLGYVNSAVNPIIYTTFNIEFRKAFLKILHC
#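 Agonist mode: compounds alone added to overnight-plated D2 PathHunter cells for 90 min at 37 C, with 57 uM final dopamine (EC100) defining full response. Beta-arrestin recruitment detected by chemiluminescent reagent, read after 1 h at ambient temperature.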
# PINK1 expr mod = changes PINK1 expression | PINK1 immunofluorescence, high-content cytometry, 24 h | Potency, µM (highest dose often 76.6 µM), inactives show at the top dose activation (PINK1 increase), usual class: activators | 410,000 tested, 0.2% active | AID 624263; active = well fitted activation curve with a large enough effect; inconclusive = small, poorly fitted or top-dose-only effect; inactive = flat fitted curve, though single readings scatter; cell line not stated here;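 further: potency means the concentration at half of the fitted maximal effect; % of control where 0% means no effect; nearly all actives have a fitted effect of over 65% in size; a mitochondrial uncoupler was the plate control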
#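 A stable cell line was treated with compounds at 5 concentrations for 24 hours, with CCCP as control. PINK1 levels and mitochondrial localization were measured by immunofluorescence with mitochondrial, cell and nuclear markers after fixation, read by laser-scanning cytometry.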
# An asterisk follows results filed as active; ? = inconclusive; . = no result given; [ ] = dose if it differs, or a comment.
# Below each SMILES: TRPML1 inh	CtBP-E1A blk	TRPML1 ag	Six1-Eya2 blk	D2 agonist	PINK1 expr mod
> CCOc1ccccc1-c1nc(CN2CCCC2c2nccs2)c(C)o1 (centres undefined)
    4	18	2.5	1	1.0	1.1%
> CC(=O)Nc1nonc1-c1nnc(SCc2ccccc2F)n1C
    -5	.	0.9	.	.	-0.2%
> COc1ccc(CNC(=O)C(=O)NCC2OCCN2C(=O)c2ccc(OC)cc2)cc1 (centres undefined)
    26	-9	0.8	-4	-3.0	1.2%
> COc1ccc(-n2nc([N+](=O)[O-])c(=NCCc3ccccc3)n2O)cc1
    -3	-8	-0.6	?	?	1.5%
> Cc1c(C(=O)OC(C)C)sc(N)c1C(=O)OC(C)C
    5	-8	2.0	7	-4.9	?
> COc1cc(NC(=O)C(c2ccccc2)c2ccccc2)c(C(=O)O)cc1OC
    -8	.	-0.6	2	-3.2	0.3%
> Cc1ccc(C(C(=O)NC(C)(C)C)N(C(=O)c2csnn2)c2cccc(F)c2)o1 (centres undefined)
    0	3	0.2	-1	-4.9	0.6%
> COC(=O)C1CCN(C(=O)c2cc(OC)c(OC)c(OC)c2)CC1
    3	11	0.6	2	-0.1	-3.5%[38.3 µM]
> COC(=O)c1c(C)nn(-c2ccc(F)cc2)c1-n1cccc1
    -6	.	1.2	.	.	0.5%
> Cc1cccc(-c2nnc(SCC(=O)C(C)(C)C)n2C)c1
    10	0	0.3	3	-4.1	0.4%
> CCc1nc2c(OCCOc3ccccc3)cccn2c1N(C)C(=O)c1cccs1
    .	-4	-0.6	-1	-3.3	0.4%
> O=C(Oc1c(Cl)cc(Cl)c2cccnc12)N1CCOCC1
    -10	-10	-0.2	3	-3.3	-0.8%
> CCC(=O)N1CCc2cc(S(=O)(=O)NC(Cc3ccccc3)C(=O)NCc3ccccc3OC)ccc21 (centres undefined)
    2	.	1.8	.	.	-0.8%
> CC1=C(C(=O)OCC(Br)(Br)Br)C(c2cccc([N+](=O)[O-])c2)NC(=O)N1CCCC(=O)O (centres undefined)
    11	-4	-0.4	-1	1.0	-0.6%
> CN(C(=O)c1cccc(S(=O)(=O)N2CCCCC2)c1)C1CCS(=O)(=O)C1 (centres undefined)
    -15	3	0.6	7	1.1	-0.9%
> Cc1nn(-c2ccccc2)c(N2CCCC2)c1/C=C1\N=C(c2ccc(OC(C)C)cc2)OC1=O
    0	2	3.4	-3	-1.7	3.8%
> Cc1noc(-c2ccccc2OCC(=O)Nc2cccc([N+](=O)[O-])c2)n1
    -9	.	-0.4	.	.	1.2%
> O=C(CCN1C(=O)/C(=C/c2ccco2)SC1=S)Nc1ccc(C(=O)O)c(O)c1
    -19	-21	1.3	?	3.3	-1.1%
> CN1CCC(N(C)S(=O)(=O)c2ccc(NC(=O)COc3ccc([N+](=O)[O-])cc3)cc2)CC1
    13	-3	1.4	-6	0.1	-0.3%
> Cc1cccc(C)c1-n1ncc(C(=O)NCCN2CCN(C)CC2)c1C1CCN(C(=O)OC(C)(C)C)CC1
    -4	.	6.5	.	.	-1.0%
> Cc1nc(CN(C)Cc2nc(Cc3ccccc3Cl)no2)cs1
    28	-12	-0.2	-1	-1.8	2.1%
> CN(C)c1ccc(/C=N/NC(=O)c2cccc(N3CCCC3=O)c2)cc1
    29	0	0.5	5	-0.2	0.8%
> COc1ccc(NC(=O)C(NC(=O)c2ccc(=O)[nH]c2)c2ccc(OC)cc2)cc1 (centres undefined)
    -3	-6	2.0	6	0.1	-0.8%
> Cc1cc(NC(=O)CCC(=O)N(c2ccccc2)C(C(=O)NC2CCCC2)c2ccc(F)cc2)no1 (centres undefined)
    5	-15	-0.6	7	-4.5	6.8%
> Cc1cc(=O)[nH]c(N/N=C/c2c[nH]c3ccccc23)n1
    64	-2	-0.8	?	-3.1	-0.6%
> Cc1ccc2nc3ccc(N4CCCCCCC4)nn3c(=O)c2c1
    2	?	0.8	?	-3.3	-1.1%
> O=S(=O)(c1ccc(Cl)cc1)c1nc(-c2ccccc2F)oc1NCc1ccccc1
    3	.	-0.4	.	.	0.7%
> COc1ccc(-c2csc(-c3cccs3)n2)cc1OC
    13	4	0.0	-3	-3.9	-0.4%
> COc1cccc(CCNC(=O)c2c(O)nc3c(C)cccn3c2=O)c1
    27	.	-0.5	.	.	0.6%
> Cc1c(Cl)cccc1-n1c(SCC(=O)NCc2ccccc2Cl)nnc1-c1ccncc1
    7	-5	0.8	-6	-3.3	0.1%[38.3 µM]
> Cc1cc(S(=O)(=O)Nc2ccc(C(=O)NCC(c3ccco3)N(C)C)cc2)ccc1F (centres undefined)
    9	-3	-0.9	1	1.4	0.0%
> COc1cc(OC)c(C2C(C#N)=C(N)Oc3cc(C)n(CCCN4CCOCC4)c(=O)c32)cc1OC (centres undefined)
    -2	0	0.5	2	-2.9	0.8%
> CCOc1ccc(NC(=S)N2CCC(N(C)CC3CCCO3)CC2)cc1 (centres undefined)
    -1	4	0.3	2	-1.4	0.3%
> Cc1[nH]nc2c1C(c1ccc(-c3ccc(Cl)cc3)o1)C(C#N)=C(N)O2 (centres undefined)
    -2	5	0.7	-16	0.6	4.9%
> CCc1cccc(N(C(=O)c2csnn2)C(C(=O)NC(C)(C)CC)c2ccccn2)c1 (centres undefined)
    -2	.	0.8	0	-3.2	1.6%
> Cc1ccc2cccc(NC(=O)c3ccc(Br)o3)c2n1
    65	-12	2.7	-3	-4.8	1.3%
> CC(Cc1cccs1)NC(=O)Nc1ccc(Cl)c(Cl)c1 (centres undefined)
    17	3	-0.3	8	-3.8	1.1%
> c1ccc(COc2ccc(OCCCN3CCCCC3)cc2)cc1
    -3	-9	-0.2	-8	-1.4	0.6%
> CCC(=O)Nc1ccc(NC(=O)c2cc3ccccc3o2)cc1
    15	24	0.3	15	-3.2	-1.2%
> CCC(=O)N1CCc2cc(S(=O)(=O)NC(C(=O)N3CCN(c4ccc(F)cc4)CC3)C(C)C)ccc21 (centres undefined)
    1	7	-0.7	3	-0.8	-1.2%
> Cc1occc1-c1nnc(SCC(=O)NCCc2ccccc2)n1Cc1ccccc1
    0	5	-1.2	-8	-4.8	0.9%
> COc1cc(C2CC(=O)Nc3cc4c(cc32)OCO4)cc(OC)c1O (centres undefined)
    -21	.	-0.6	.	.	2.9%
> COC(=O)C(C)N(c1ccc(C)cc1)S(=O)(=O)c1c(C)[nH]c(=O)[nH]c1=O (centres undefined)
    -1	9	-0.5	0	0.5	1.9%[38.3 µM]
> COc1ccc(NC(=O)c2c(C)oc3ccc(O)c(CN4CCCC(C)C4)c23)cc1Cl (centres undefined)
    10	.	0.4	.	.	0.2%
> CC(NC(=O)c1cc2sccc2n1Cc1ccc(F)cc1)c1ccccc1 (centres undefined)
    -9	.	0.3	.	.	4.6%
> OCCN1CCN(CC(O)COC(c2ccc(F)cc2)c2ccc(F)cc2)CC1 (centres undefined)
    -8	9	-0.3	5	-1.2	2.7%
> COc1ccc(NC(=O)N(CCO)Cc2cc3c(C)cc(C)cc3[nH]c2=O)cc1
    1	-6	1.2	7	0.4	1.8%
> CC(C)n1cnc2c(=S)nc[nH]c21
    7	.	-0.1	-3	-4.7	2.1%
> O=C1CC(N2CCN(c3ccc(F)cc3)CC2)C(=O)N1Cc1ccccc1 (centres undefined)
    4	6	0.1	10	1.1	0.9%
> COc1ccc(CCNC(=O)c2cc(Nc3cc(C)cc(C)c3)nc3ccccc23)cc1OC
    41	.	1.6	.	.	0.3%
> CCc1ccc(S(=O)(=O)c2nnn3c2nc(NCCNC(C)=O)c2ccccc23)cc1
    -15	-21	1.1	-29	3.5	0.0%
> Cc1ccc(-c2nnc(SCC(=O)NC3CCCC3)nc2-c2ccc(C)cc2)cc1
    14	.	1.8	.	.	1.0%
> CCS(=O)(=O)N1CCCC(C(=O)NCCOC)C1 (centres undefined)
    -6	.	2.0	.	.	-5.5%
> COCCCn1cnnc1SC(C)C(=O)Nc1ccc(S(=O)(=O)N2CCOCC2)cc1 (centres undefined)
    1	10	0.2	3	-0.3	-0.2%
> O=C(/C(=N\O)n1cncn1)c1ccc(Br)cc1Br
    38	-27	0.6	3	-2.6	4.7%
> CN(C)S(=O)(=O)N(CC(=O)N1CCC(Cc2ccccc2)CC1)c1ccccc1
    29	-1	0.6	-3	-2.2	15%
> Cc1ccc(NC(=O)CN(C)C(=O)COC(=O)c2ccc(Cl)cc2O)cc1
    17	19	0.0	3	-0.2	3.0%
> CCN(CC)C(=O)C1=C(C)N(CCCN2CCCC2=O)C(=O)C(CC(=O)NCC2CCCCC2)C1 (centres undefined)
    17	5	-0.2	8	-6.6	0.8%
> O=C(O)CCn1c(C2CCCCC2)nc2ccccc21
    -10	3	3.5	-2	-1.9	2.1%[38.3 µM]
> CCn1c(CN2C(=O)CSc3ccccc32)n[nH]c1=S
    39	-15	0.3	11	0.2	-2.3%

# Next part:
# Below each SMILES: TRPML1 inh	CtBP-E1A blk	TRPML1 ag	Six1-Eya2 blk	D2 agonist	PINK1 expr mod
> COc1cccc(Cn2c(CNC(=O)c3cc([N+](=O)[O-])ccc3Cl)nc3cccnc32)c1
    30	.	1.8	.	.	-1.6%
> CC(=O)O/N=C(/c1nonc1N)N1CCN(c2ccc([N+](=O)[O-])cc2Cl)CC1
    5	8	0.6	3	2.7	1.2%
> CCOc1cc(C2/C(=C(/O)c3ccc(OC(C)C)cc3)C(=O)C(=O)N2CCCOC)ccc1O (centres undefined)
    40	-1	0.6	5	1.7	-1.2%
> O=C(c1ccccc1)N1CCN(C(=O)c2nn3c(C(F)(F)F)cc(-c4ccccc4)nc3c2Br)CC1
    -12	0	0.7	4	4.8	0.3%

# Molecules listed so far with two or more sulfur atoms (5):
# Below each SMILES: TRPML1 inh	CtBP-E1A blk	TRPML1 ag	Six1-Eya2 blk	D2 agonist	PINK1 expr mod
> CN(C(=O)c1cccc(S(=O)(=O)N2CCCCC2)c1)C1CCS(=O)(=O)C1 (centres undefined)
    -15	3	0.6	7	1.1	-0.9%
> O=C(CCN1C(=O)/C(=C/c2ccco2)SC1=S)Nc1ccc(C(=O)O)c(O)c1
    -19	-21	1.3	?	3.3	-1.1%
> COc1ccc(-c2csc(-c3cccs3)n2)cc1OC
    13	4	0.0	-3	-3.9	-0.4%
> COCCCn1cnnc1SC(C)C(=O)Nc1ccc(S(=O)(=O)N2CCOCC2)cc1 (centres undefined)
    1	10	0.2	3	-0.3	-0.2%
> CCn1c(CN2C(=O)CSc3ccccc32)n[nH]c1=S
    39	-15	0.3	11	0.2	-2.3%
